Assay outcomes from PubChem.
TRPV1 potentiator: potentiators of human vanilloid receptor 1 (TRPV1); Q8NER1; TRPV1-expressing cells, Fluo-8 calcium influx, capsaicin EC20 potentiation; host cell line not named in the record; control for the full effect not named in the record; potentiation, % at 8.33 µM; actives 0.02% (n = 320,000); AID 540277; active means potentiation above 80%; inconclusive means 30% to 80%; inactive means below 30%; note: 0% is about no effect
Target sequence (Q8NER1 whole entry, looked up): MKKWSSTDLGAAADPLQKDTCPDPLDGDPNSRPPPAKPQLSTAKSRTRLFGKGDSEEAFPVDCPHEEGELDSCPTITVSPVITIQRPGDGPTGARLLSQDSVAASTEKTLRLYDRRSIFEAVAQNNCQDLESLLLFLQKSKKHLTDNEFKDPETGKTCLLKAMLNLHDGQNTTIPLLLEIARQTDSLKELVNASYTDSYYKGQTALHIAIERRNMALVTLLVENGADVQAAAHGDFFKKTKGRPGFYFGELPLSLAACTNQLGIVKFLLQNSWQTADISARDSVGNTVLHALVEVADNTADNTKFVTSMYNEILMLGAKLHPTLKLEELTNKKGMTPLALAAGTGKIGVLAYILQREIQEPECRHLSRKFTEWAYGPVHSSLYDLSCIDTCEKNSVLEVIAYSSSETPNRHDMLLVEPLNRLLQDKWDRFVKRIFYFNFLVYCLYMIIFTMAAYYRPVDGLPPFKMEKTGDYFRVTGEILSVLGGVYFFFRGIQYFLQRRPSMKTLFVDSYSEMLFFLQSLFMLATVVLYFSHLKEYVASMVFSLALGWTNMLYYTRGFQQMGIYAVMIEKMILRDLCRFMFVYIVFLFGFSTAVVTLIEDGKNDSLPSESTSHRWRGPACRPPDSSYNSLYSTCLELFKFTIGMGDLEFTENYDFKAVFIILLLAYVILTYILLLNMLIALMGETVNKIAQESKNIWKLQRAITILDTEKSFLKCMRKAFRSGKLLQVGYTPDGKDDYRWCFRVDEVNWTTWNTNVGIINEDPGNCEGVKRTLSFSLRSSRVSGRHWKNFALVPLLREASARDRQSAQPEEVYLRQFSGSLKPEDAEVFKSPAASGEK
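Fluo-8 calcium influx in TRPV1-expressing cells, kinetic read (ex 480/em 520 nm). Compound added and read 3 min for agonist activity, followed by capsaicin at EC20 final and 2 min further read for enhancement.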
CtBP-E1A inh: CtBP/E1A binding inhibition. AlphaScreen GST-E1A/His-CtBP binding, 1536-well; stronger effect = lower value; control for the full effect not named in the record. activity change, % (no concentration beside the values). actives 0.49% (n = 340,000). AID 651724; in the data active means activity change below about -65%; inconclusive means about -30% to -65%; inactive means above about -30%; note: % is set by controls: 0 for no effect and ±100 for the full control effect; compound concentration not given in the record
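AlphaScreen with 125 nM GST-E1A and 125 nM His-CtBP (5X stocks) in Tris pH 8.0, 300 mM NaCl, BSA, Tween 20, TCEP. Compounds preincubated 2 h at 37 deg C, then glutathione donor/nickel acceptor beads added for 1 h at 37 deg C in dark.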
gsp ag: gsp mutant agonism | gsp mutant cells, cAMP HTRF, 30 min; control for the full effect not named in the record | Potency, µM (top dose mostly 76.9 µM), inactives show at the highest dose activation (cAMP increase), hits mostly activators | actives 0.13% (n = 340,000); active = well fitted activation curve with a large enough effect; inconclusive = small, poorly fitted or top-dose-only effect, or another doubt; inactive = no such curve, though single readings can be large or run the other way; cell line not stated here;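 note: phosphodiesterase inhibitor Ro 20-1724 added with compounds to block cAMP breakdown; potency is the fitted concentration of half-maximal effect; nearly all actives have a fitted effect of over 60% in size; about a fifth of the inactives were tested at one dose only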
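Cells in DMEM/10% FBS with G418 were pretreated with compounds in DMSO plus […] (300 uM stock) for 30 min at 37C. cAMP was measured by HTRF (cAMP-d2 plus anti-cAMP antibody-K) after 30 min at room temperature.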
ClpP mod: qHTS Assay for Activators of ClpP; ATP-dependent Clp protease proteolytic subunit (Bacillus subtilis (strain 168)), P80244; purified B. subtilis ClpP, FRET peptide cleavage, 20 min; Potency, µM (highest dose often 57.5 µM), for inactives: at the highest dose activity change, negative = active; actives 1.9% (n = 340,000); active = well fitted falling curve with a large enough effect; inconclusive = small, poorly fitted or top-dose-only effect; inactive = no such curve, though single readings can be large or run the other way; note: potency is the fitted concentration of half-maximal effect; the source files actives as falling curves though it sought activators and does not explain the sign; nearly all actives have a fitted effect of over 65% in size; many hits overshoot -100%
Target sequence (P80244 whole entry, looked up): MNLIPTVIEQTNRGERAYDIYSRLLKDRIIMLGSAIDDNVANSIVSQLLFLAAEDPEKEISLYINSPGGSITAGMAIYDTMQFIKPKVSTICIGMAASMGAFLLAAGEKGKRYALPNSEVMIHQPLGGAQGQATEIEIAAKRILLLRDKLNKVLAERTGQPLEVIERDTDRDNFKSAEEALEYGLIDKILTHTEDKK
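ClpP 10 microg/mL final, pH 8 Tris/KCl buffer with BSA, glycerol, Tween-20; compound pinned in; FRET-FV substrate; RT 20 min; Ex320/Em430; ΔFRET vs ADEP 5.8 microM, DMSO, no enzyme.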
Sfp PPTase inh: Sfp phosphopantetheinyl transferase inhibition. Biochemical Sfp PPTase activity, qHTS. Potency, µM, inactives show max response, negative = inhibition, hits mostly inhibitors. actives 3.5% (n = 310,000); active = well fitted inhibition curve with a large enough effect; inconclusive = small, poorly fitted or top-dose-only effect, or another doubt; inactive = no such curve, though single readings can be large or run the other way;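 note: the enzyme is Sfp with the accession as filed and its product quenches rhodamine fluorescence; potency is the fitted concentration of half-maximal effect; 0% = enzyme reaction without inhibitor and -100% = no enzyme wells; top concentration of the series not given in the record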
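With Hepes-Na pH 7.6 buffer containing 10 mM MgCl2, Sfp (15 nM) modified BHQ-2-YbbR (12.5 uM) using rhodamine-CoA (5 uM). Two reads 30 minutes apart at 525/598 nm yielded each well's rate.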
gsp antag: gsp mutant antagonism; gsp-mutant cells, cAMP HTRF, 30 min; control for the full effect not named in the record; AID 624288; Potency, µM (highest dose often 76.9 µM), for inactives: at the top dose activity change, negative = inhibition, actives largely listed as inhibitors; actives 0.4% (n = 340,000); active = falling curve of any shape with a large fitted effect; inconclusive = falling curve, mostly with a smaller effect; inactive = flat or rising curve; cell line not stated here;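 note: intracellular cAMP measured with PDE inhibitor Ro 20-1724 present during compound exposure; potency is the fitted concentration of half-maximal effect; % is set by controls: 0 for no effect and ±100 for the full control effect; nearly all actives have a fitted effect of over 65% in size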
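G418-selected cells were plated in DMEM/10% FBS for 16-24 h at 37C, then treated with compounds plus the PDE inhibitor […] (300 uM solution added) for 30 min at 37C. Intracellular cAMP was measured by HTRF after 30 min lysis at room temperature.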
Menin-MLL FL inh: displaces fluorescein MLL peptide from human menin | FP activity change, % at 61.4 µM | 290,000 tested, under 10 active | Fluorescence polarization, fluorescein-MLL peptide displacement from menin; inconclusive = falling polarisation curve, or a change in total fluorescence; inactive = total fluorescence flat and polarisation flat or rising; no compound was filed as active; the % refers to the polarisation; negative = inhibition;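 note: % of control where 0% means no effect; inhibitors lower the polarisation; unlabelled MLL peptide was the positive control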
The depositor's hits bear a star; & = joins results of further samples; [ ] = another dose, or the depositor's remark. Outcome played no part in choosing rows; any-hit rate near 5.3%.

Screening O=C(NCC1CCCO1)c1cc2ccccc2cc1O (centres undefined) returned TRPV1 potentiator 3, CtBP-E1A inh 0, gsp ag -12%[15.4 µM], ClpP mod 1.2% and gsp antag -6%.
O=C(O)c1ccc(OC2CSC2)cc1 was read as TRPV1 potentiator 5, CtBP-E1A inh -2, gsp ag 0%, ClpP mod 1.0%, Sfp PPTase inh 17%, gsp antag -6% and Menin-MLL FL inh 5.2.
`NCCCCCc1cn([C@@H](CO)C(=O)NCCCCCCCCCCC(=O)N2CCNCC2)nn1` gave TRPV1 potentiator -7, CtBP-E1A inh -1, ClpP mod -3.3% and gsp antag 11%.
For COc1cc(/C(C)=N/NC(=O)c2ccc(CSc3nncn3C)cc2)cc(OC)c1OC the results were TRPV1 potentiator 27, CtBP-E1A inh 7, gsp ag 1%[15.4 µM], ClpP mod -0.8%, Sfp PPTase inh 0%, gsp antag 4% and Menin-MLL FL inh -0.1.
`COc1cc(NC(=O)CSc2nnnn2-c2ccccc2)cc(OC)c1OC` gave TRPV1 potentiator 5, CtBP-E1A inh 0, gsp ag 2%, ClpP mod 3.7%, Sfp PPTase inh 10%, gsp antag 7% and Menin-MLL FL inh 2.8.
O=c1c2ccccc2n2c(-c3cccc(Cl)c3)nnc2n1Cc1ccccc1 was read as TRPV1 potentiator -1, CtBP-E1A inh -2, gsp ag 21%, ClpP mod -1.0%, Sfp PPTase inh -3%, gsp antag -2% and Menin-MLL FL inh -0.2.
`Cc1ccc2c(c1)N(CC(=O)O)C(=O)CO2` gave TRPV1 potentiator -6, CtBP-E1A inh 10, gsp ag -45%[inhibitor], ClpP mod 1.3%, Sfp PPTase inh 12%, gsp antag 4% and Menin-MLL FL inh 1.5.
`CC(/C=C/c1ccccc1)=N\Nc1nc2c(c(=O)[nH]c(=O)n2C)n1CCO` gave TRPV1 potentiator -9, CtBP-E1A inh -15, gsp ag 6%, ClpP mod -2.7%, Sfp PPTase inh 40µM*, gsp antag -1% and Menin-MLL FL inh 3.2.
Oc1cc2c(cc1C(c1ccc(Cl)c(Cl)c1)N1CCCC1)OCO2 (centres undefined) was read as TRPV1 potentiator -1, CtBP-E1A inh -23, gsp ag 1%, Sfp PPTase inh inconclusive, gsp antag -6% and Menin-MLL FL inh -1.0.
`c1ccc(Nc2ncnc3[nH]ncc23)cc1` gave TRPV1 potentiator -11, gsp ag -49%[inhibitor], ClpP mod -0.5%, Sfp PPTase inh 6%, gsp antag -4% and Menin-MLL FL inh 1.6.
Screening COC(=O)c1ccc(NC(=O)CSc2nc3cccnc3n2C)cc1 returned TRPV1 potentiator 6, CtBP-E1A inh -2, gsp ag inconclusive, ClpP mod -1.0%, Sfp PPTase inh -24%, gsp antag 25% and Menin-MLL FL inh -0.7.
Cc1ccc(SCC(=O)OCC(=O)N(CCC#N)c2ccccc2)cc1C was read as TRPV1 potentiator 9, CtBP-E1A inh 2, gsp ag -4%, ClpP mod -1.2% and gsp antag 5%.
CCc1ccc(NC(=S)Nc2cccc3cnccc23)cc1 was read as TRPV1 potentiator -5, CtBP-E1A inh -2, gsp ag -3%[15.4 µM], Sfp PPTase inh 22µM*, gsp antag 4% and Menin-MLL FL inh -1.0.
For O=C(Nc1ccccc1)N1CCn2c1nc1ccccc12 the results were TRPV1 potentiator 15, CtBP-E1A inh 10, gsp ag 3%, ClpP mod -1.1%, Sfp PPTase inh 0%, gsp antag -11%[15.4 µM] and Menin-MLL FL inh 2.6.
Screening COc1ccccc1OCCCOc1ccc(/C=C2\SC(=O)NC2=O)cc1OC returned TRPV1 potentiator 11, CtBP-E1A inh inconclusive, gsp ag 5%[15.4 µM], ClpP mod -1.9%, Sfp PPTase inh 6%, gsp antag -22% and Menin-MLL FL inh 1.7.
Screening COc1ccc(C(=O)CSc2nnc(NC(=O)C3CC(=O)N(c4ccccc4)C3)s2)cc1 (centres undefined) returned TRPV1 potentiator -1, CtBP-E1A inh 1, gsp ag -29%, ClpP mod 3.0%, Sfp PPTase inh -3%, gsp antag -12% and Menin-MLL FL inh 7.0.
For COc1cc2c(cc1OC)C(C)N(C(=S)Nc1ccccc1)CC2 (centres undefined) the results were TRPV1 potentiator 5, CtBP-E1A inh -1, gsp ag 10%[15.4 µM], ClpP mod -1.1%, Sfp PPTase inh 20%, gsp antag 5% and Menin-MLL FL inh 0.8.
For Cc1cc(-c2ccc(S(=O)(=O)N3CCCCC3)s2)on1 the results were TRPV1 potentiator -27, gsp ag 10%, ClpP mod 2.7%, Sfp PPTase inh 0%, gsp antag -13% and Menin-MLL FL inh 3.0.
`COc1ccc(NC(=O)C2CCCN2S(=O)(=O)c2ccc3c(c2)CCC(=O)N3)c(OC)c1` (centres undefined) gave TRPV1 potentiator 1, CtBP-E1A inh -20, gsp ag 11%, ClpP mod -11%, Sfp PPTase inh 18%, gsp antag 13% and Menin-MLL FL inh 0.5.
Screening CC(=O)Nc1cccc(NC(=O)C2CCCN2C(=O)Nc2cccc(C)c2)c1 (centres undefined) returned TRPV1 potentiator 2, CtBP-E1A inh 5, gsp ag -61%, ClpP mod -0.1%, Sfp PPTase inh 10%, gsp antag 5% and Menin-MLL FL inh 4.4.
Screening C#CCOCCOCCOCCNc1nc(N2CCN(C(=O)CCCCCCCCCCNC(=O)Cn3cc(CCCCCN)nn3)CC2)nc(N2CCN(C(=O)CCCCCCCCCCNC(=O)[C@@H]([C@H](C)O)n3cc(C)nn3)CC2)n1 returned TRPV1 potentiator -14, CtBP-E1A inh -1, ClpP mod 1.0% and gsp antag 7%.
`Cc1cccc(-c2nc(NCCCN(C)C)c3ccccc3n2)c1` gave TRPV1 potentiator 11, CtBP-E1A inh 0, gsp ag 42%, Sfp PPTase inh 4%, gsp antag -6% and Menin-MLL FL inh -3.5.
`Cc1ccc(S(=O)(=O)N(C)c2cc(S(=O)(=O)N3CCOCC3)c(C)cc2C)cc1` gave TRPV1 potentiator -12, CtBP-E1A inh -18, gsp ag -9%[15.4 µM], Sfp PPTase inh 0%, gsp antag inconclusive and Menin-MLL FL inh 1.3.
O=C1CCC[C@H]2c3[nH]c4ccccc4c3CCN12 was read as CtBP-E1A inh 0, ClpP mod -8.2% and gsp antag 6%.
O=C(NNS(=O)(=O)c1ccccc1)c1ccccc1-n1cccc1 was read as TRPV1 potentiator 7, CtBP-E1A inh -3, gsp ag 28%, ClpP mod 0.4%, Sfp PPTase inh -5%, gsp antag 6% and Menin-MLL FL inh -2.4.
O=C(OCCCc1cc2ccccc2c(=O)o1)c1ccccc1C(F)(F)F was read as TRPV1 potentiator 3, CtBP-E1A inh 17, ClpP mod -9.7% and gsp antag -7%.
Screening CCC(C)N(C(=O)CSc1nnnn1-c1ccccc1OC)C1CCS(=O)(=O)C1 (centres undefined) returned TRPV1 potentiator -3, CtBP-E1A inh -7, gsp ag -60%[inhibitor], ClpP mod -4.2% and gsp antag -4%.
Screening CS(=O)(=O)N1CCC(C(=O)N2CCN(Cc3ccccc3)CC2)CC1 returned TRPV1 potentiator -12, CtBP-E1A inh 3, gsp ag 0%[15.4 µM], Sfp PPTase inh 0%, gsp antag 13% and Menin-MLL FL inh 0.3.
`O=C(C1=C[C@H](c2ccc3c(c2)OCO3)C[C@H](OCc2ccc(CO)cc2)O1)N1CCN(Cc2ccc3c(c2)OCO3)CC1` gave TRPV1 potentiator 11, CtBP-E1A inh -15, ClpP mod -2.4%, Sfp PPTase inh 4%, gsp antag -13% and Menin-MLL FL inh 6.3.
Screening CC(C(=O)O)c1ccc2c(c1)[nH]c1ccc(Cl)cc12 (centres undefined) returned TRPV1 potentiator 12, CtBP-E1A inh 0, ClpP mod 1.2%, Sfp PPTase inh 25%&-7%, gsp antag -27% and Menin-MLL FL inh inconclusive.
Cc1ccc(C)c(N2CCN(C(=O)CCS(=O)(=O)c3cccc4nonc34)CC2)c1 was read as TRPV1 potentiator inconclusive, CtBP-E1A inh 0, gsp ag -38%[inhibitor], ClpP mod 0.7%, Sfp PPTase inh -1%, gsp antag -15% and Menin-MLL FL inh 4.9.
COc1ccc(NC(=S)NC23CN4CN(CN(C4)C2)C3)cc1 was read as TRPV1 potentiator -5, CtBP-E1A inh 11, gsp ag 25%, ClpP mod -4.4%, Sfp PPTase inh inconclusive, gsp antag 11% and Menin-MLL FL inh 2.4.
COc1ccc(C2C(C(=O)NCC3CCCO3)c3cc(OC)c(OC)cc3C(=O)N2C)cc1OC (centres undefined) was read as TRPV1 potentiator 1, CtBP-E1A inh 3, gsp ag -3%, ClpP mod -0.3%, Sfp PPTase inh 12%, gsp antag 10% and Menin-MLL FL inh -2.6.
COc1ccc(CN2CCC[C@]3(N[C@H](c4ccc(C)cc4)[C@@H]4C(=O)N(Cc5ccccc5)C(=O)[C@@H]43)C2=O)cc1 was read as CtBP-E1A inh -8, gsp ag -56%[inhibitor] and ClpP mod 0.7%.
Screening COC(=O)[C@@]1(Cc2ccc(F)cc2)[C@H]2c3cc(C(=O)N4CCCC4)n(Cc4cc(C)n(C)n4)c3C[C@H]2CN1C(=O)c1ccccc1 returned CtBP-E1A inh -1, ClpP mod 0.8%, Sfp PPTase inh -2% and Menin-MLL FL inh -2.5.
For O=C(CSc1ccc(-c2ccccc2)nn1)c1ccccc1 the results were TRPV1 potentiator -30, CtBP-E1A inh 8, gsp ag 7%, ClpP mod 0.3%, Sfp PPTase inh -4%, gsp antag -24% and Menin-MLL FL inh 6.9.

Molecules shown so far with fluorine, in the order listed:
O=C(OCCCc1cc2ccccc2c(=O)o1)c1ccccc1C(F)(F)F was read as TRPV1 potentiator 3, CtBP-E1A inh 17, ClpP mod -9.7% and gsp antag -7%.
Screening COC(=O)[C@@]1(Cc2ccc(F)cc2)[C@H]2c3cc(C(=O)N4CCCC4)n(Cc4cc(C)n(C)n4)c3C[C@H]2CN1C(=O)c1ccccc1 returned CtBP-E1A inh -1, ClpP mod 0.8%, Sfp PPTase inh -2% and Menin-MLL FL inh -2.5.
